# Bioassay records (PubChem)
# Vaccinia inh = Vaccinia orthopox stage-specific inhibition; activity change (mCherry), % (no concentration beside the values); Vaccinia-infected cells, mCherry/Venus stage reporter fluorescence; stronger effect = lower value; some inactives read as strong as hits; AID 1053133; 89,000 compounds, 0.01% hits;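 active = mCherry past -33% and 40 or more points under the early reporter, replicates agreeing; inconclusive = past -33% without that gap or agreement; tested in A549 cells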;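 also: scaled between vehicle wells and reference inhibitor wells; 23 nL library stock went into each well; one replicate is shown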
# Vaccinia inh Venus = recorded beside Vaccinia inh, whose call it bears; activity change (Venus), %; measured here: Venus reporter, other viral stage;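 negative = less Venus signal; first of two replicates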
# * hit, by the source's call; ? = inconclusive; . = not tested or not shown. Only part of the results is shown (hit frequency here may not be typical).
# Start of the listing, in advance, 2 compounds:
SMILES,Vaccinia inh,Vaccinia inh Venus
C[C@H]1CCCCO[C@@H](CN(C)S(=O)(=O)c2ccccc2)[C@@H](C)CN([C@@H](C)CO)C(=O)c2cc(NC(=O)Nc3ccccc3)ccc2O1,-11.4,-5.6
O=C(NC1CCCC1)[C@@H]1[C@@H](CO)[C@@H]2Cn3c(cccc3=O)[C@@H]2N1C(=O)NC1CCCC1,1.9,15.6

# The list itself, repeating the preview:
SMILES,Vaccinia inh,Vaccinia inh Venus
C[C@H]1CCCCO[C@@H](CN(C)S(=O)(=O)c2ccccc2)[C@@H](C)CN([C@@H](C)CO)C(=O)c2cc(NC(=O)Nc3ccccc3)ccc2O1,-11.4,-5.6
O=C(NC1CCCC1)[C@@H]1[C@@H](CO)[C@@H]2Cn3c(cccc3=O)[C@@H]2N1C(=O)NC1CCCC1,1.9,15.6
C[C@H]1CN([C@@H](C)CO)C(=O)c2cc(-c3cccnc3)cnc2O[C@@H]1CN(C)C(=O)c1cccc(F)c1,4.9,8.0
C/C=C/c1ccc2c(c1)O[C@@H](CN(C)C(=O)c1ccc(F)cc1)[C@H](C)CN([C@H](C)CO)S2(=O)=O,14.9,0.5
O=C(CN1CCOCC1)N1CCCCN2[C@H](CO)[C@@H](c3ccc(C#Cc4ccccc4)cc3)[C@@H]2C1,-14.4,-18.0
C/C=C/c1ccc2c(c1)O[C@H](CN(C)C(=O)c1ccc3c(c1)OCO3)[C@@H](C)CN([C@@H](C)CO)S2(=O)=O,-27.4,-11.8
CC(C)CC#Cc1ccc2c(c1)O[C@H](CN(C)C(=O)Cc1cccnc1)[C@@H](C)CN([C@@H](C)CO)S2(=O)=O,-8.1,-10.4
O=C(Nc1ccccc1F)N1CC(=O)N2[C@@H](CO)[C@H](c3ccc(C#CC4CCCC4)cc3)[C@@H]2C1,-28.8,-26.3
CN(C)C(=O)c1cccc(-c2ccc3c(c2)[C@H]2[C@H](CCN2C(=O)C2CC2)[C@H](CO)N3)c1,-2.8,1.7
C[C@@H]1CN([C@@H](C)CO)C(=O)Cc2cc(NS(C)(=O)=O)ccc2O[C@H]1CN(C)Cc1ccc(Oc2ccccc2)cc1,-32.0,-25.7
O=C(Nc1cccc(Cl)c1)N1C[C@H]2[C@@H](c3ccccc31)[C@H](CO)N2CC1CCCCC1,?,.
COc1ccc([Si](C)(C)[C@H]2[C@H](CCn3cc(CCO)nn3)O[C@@]3(C(=O)N(Cc4cccc(N5CCOC5=O)c4)c4ccccc43)[C@@H]2C)cc1,?,.
COC(=O)c1cn(CC(=O)N2CCOCC2)nn1,20.8,17.0
C[C@H](CO)N1C[C@H](C)[C@H](CN(C)S(C)(=O)=O)OCc2ccccc2-c2ccccc2C1=O,45.5,37.5
C[C@H]1CN([C@@H](C)CO)C(=O)c2cc(NC(=O)Nc3ccccc3)ccc2O[C@@H]1CN(C)S(C)(=O)=O,12.4,12.8
O=C(CCN1CCCCC1)NCC[C@H]1CC[C@@H](NC(=O)C2CC2)[C@H](CO)O1,9.3,8.3
C[C@H](CO)N1C[C@H](C)[C@@H](CN(C)Cc2ccc(-c3ccccc3)cc2)Oc2ccc(NC(=O)CCCN(C)C)cc2C1=O,-13.5,-9.5
O=C(C[C@H]1CC[C@@H]2[C@H](COC[C@H](O)CN2C(=O)Nc2ccc(Cl)cc2)O1)N1CCCCC1,-19.2,-15.3
COc1ccc(CN(C)C[C@H]2OCCCC[C@@H](C)Oc3ccc(NC(=O)Nc4ccc(C(F)(F)F)cc4)cc3C(=O)N([C@H](C)CO)C[C@H]2C)cc1,?,.
COCC#Cc1ccc2c(c1)O[C@@H](CN(C)C(=O)C1CCOCC1)[C@H](C)CN([C@@H](C)CO)S2(=O)=O,20.9,15.2
COc1ccccc1CN1C[C@@H]2N[C@H](C1)C2c1ccc(-c2ccc(C(=O)N(C)C)cc2)cc1 (some centres undefined),-22.4,-22.6
CCC(=O)N1CC2(C1)[C@H](c1ccc(-c3ccccc3)cc1)[C@@H](CO)N2C(C)=O,-2.7,-3.8
COc1ccccc1-c1ccc2n(c1=O)C[C@H]1[C@H](CO)[C@@H](C(=O)N[C@@H](C)c3ccccc3)[C@@H]2N1C,11.4,6.9
O=C(O)[C@H]1[C@H](CO)[C@H]2Cn3c(ccc(-c4cncnc4)c3=O)[C@H]2N1C(=O)C1CCCCC1,6.7,4.9
O=C1NCC(=O)N2[C@@H]1C[C@@H](C(=O)NCc1ccc(F)cc1)[C@H]2c1ccc(O)cc1,11.3,4.1

# As entered above:
# Under Vaccinia inh Venus, CN(C)C(=O)c1cccc(-c2ccc3c(c2)[C@H]2[C@H](CCN2C(=O)C2CC2)[C@H](CO)N3)c1 is entered as 1.7
# Under Vaccinia inh, O=C(C[C@H]1CC[C@@H]2[C@H](COC[C@H](O)CN2C(=O)Nc2ccc(Cl)cc2)O1)N1CCCCC1 is entered as -19.2
# Under Vaccinia inh Venus, COc1ccccc1-c1ccc2n(c1=O)C[C@H]1[C@H](CO)[C@@H](C(=O)N[C@@H](C)c3ccccc3)[C@@H]2N1C is entered as 6.9
# Under Vaccinia inh Venus, COC(=O)c1cn(CC(=O)N2CCOCC2)nn1 is entered as 17.0

# The results go on.
SMILES,Vaccinia inh,Vaccinia inh Venus
C[C@H]1CN([C@@H](C)CO)C(=O)c2cc(-c3ccc(F)cc3)cnc2O[C@@H]1CN(C)C(=O)c1ccccn1,4.1,4.1
CNC[C@H]1OCCCC[C@@H](C)Oc2ccc(NC(=O)Nc3ccc4c(c3)OCO4)cc2C(=O)N([C@@H](C)CO)C[C@@H]1C,-6.4,1.9
CN(C)CC(=O)N1[C@H](CO)[C@@H](c2ccccc2)C12CN(CC1CCOCC1)C2,4.7,7.4
C[C@H](CO)N1C[C@H](C)[C@H](CN(C)C(=O)Nc2ccc(C(F)(F)F)cc2)Oc2c(NS(C)(=O)=O)cccc2C1=O,11.3,10.5
C[C@@H]1CN([C@H](C)CO)C(=O)c2cc(NS(=O)(=O)c3ccccc3)ccc2O[C@H]1CN(C)Cc1ccncc1,6.5,5.7
CC(C)CC#Cc1ccc2c(c1)O[C@@H](CN(C)C(=O)CC1CC1)[C@H](C)CN([C@@H](C)CO)S2(=O)=O,-28.1,-14.0
Cc1cccc(-c2ccc([C@H]3[C@H]4CN(Cc5cncnc5)CCCCN4[C@H]3CO)cc2)c1,-17.1,-21.8
COc1ccccc1C(=O)N1C[C@H]2[C@@H](c3ccccc31)[C@H](CO)N2C(=O)C1CC1,24.4,14.0
COc1ccc(NC(=O)Nc2cccc3c2O[C@@H](CN(C)Cc2ccc(Oc4ccccc4)cc2)[C@@H](C)CN([C@H](C)CO)C3=O)cc1,?,.
C[C@@H]1CN([C@@H](C)CO)C(=O)Cc2cc(NS(=O)(=O)c3ccc(F)cc3)ccc2O[C@H]1CN(C)Cc1ccc2c(c1)OCO2,?,.
C[C@H]1CN([C@@H](C)CO)C(=O)c2cc(-c3cncnc3)cnc2O[C@H]1CN(C)C(=O)Nc1ccc2c(c1)OCO2,23.2,10.5
N#C[C@@H]1[C@H](c2ccccc2-c2ccccc2F)[C@@H](CO)N1C(=O)C1CC1,11.8,4.4
CCCNC(=O)[C@@H]1[C@@H](CO)[C@@H]2Cn3c(ccc(C4=CCCC4)c3=O)[C@@H]2N1CCC,1.9,-1.3
Cc1noc(C)c1S(=O)(=O)Nc1ccc2c(c1)C(=O)N([C@H](C)CO)C[C@H](C)[C@@H](CN(C)C(=O)NC(C)C)O2,15.0,10.4
C[C@H](CO)N1C[C@H](C)[C@H](CN(C)S(=O)(=O)c2cccc(F)c2)Oc2ncc(C#CC3CC3)cc2C1=O,-3.8,-5.0
CCCC#Cc1ccc([C@H]2[C@@H](CO)N(C(C)=O)[C@H]2CN(C)C(=O)C2CC2)cc1,?,.
O=C(C[C@H]1CC[C@@H]2[C@H](COC[C@H](O)CN2CC2CCOCC2)O1)NCC1CC1,1.6,8.4
C[C@@H]1CN([C@@H](C)CO)C(=O)c2cc(C#C[C@@H](C)O)cnc2O[C@@H]1CN(C)C(=O)Cc1ccccn1,28.6,19.4
C[C@@H]1CCCCO[C@@H](CN(C)C)[C@@H](C)CN([C@H](C)CO)C(=O)c2cc(NS(=O)(=O)c3ccc(F)cc3)ccc2O1,-1.2,-1.6
CCC(=O)Nc1ccc2c(c1)OC[C@@H](C)N(C(=O)c1cnccn1)C[C@@H](C)[C@@H](OC)CN(C)C2=O,4.6,-0.8
COc1ccccc1NC(=O)N[C@H]1CC[C@H](CC(=O)N[C@@H](C)c2ccccc2)O[C@H]1CO,7.1,7.5
COc1ccc(NC(=O)Nc2ccc3c(c2)C(=O)N([C@@H](C)CO)C[C@@H](C)[C@@H](CN(C)S(=O)(=O)c2ccccc2)OCCCC[C@H](C)O3)cc1,3.6,2.4
CCCC(=O)Nc1ccc2c(c1)C(=O)N(C)[C@H]1CC[C@H](CC(=O)NCc3ccccc3)O[C@@H]1CO2,-5.3,1.4
C[C@@H]1CN([C@H](C)CO)C(=O)c2cccc(NC(=O)Nc3ccc(F)cc3)c2O[C@H]1CN(C)S(=O)(=O)c1ccc(Cl)cc1,-18.6,-16.2
CN(C)C(=O)[C@@H]1[C@@H](CO)[C@@H]2Cn3c(cccc3=O)[C@@H]2N1C(=O)C1CCCCC1,22.1,11.4

# New compounds follow:
SMILES,Vaccinia inh,Vaccinia inh Venus
COc1ccccc1CNC(=O)C[C@H]1C[C@H]2c3cc(NC(=O)CN(C)C)ccc3O[C@H]2[C@H](CO)O1,-1.3,6.3
C[C@@H]1CN([C@H](C)CO)C(=O)Cc2cc(NS(=O)(=O)c3ccc(Cl)cc3)ccc2O[C@H]1CN(C)Cc1ccc(C(=O)O)cc1,10.4,1.1
C[C@H](CO)N1C[C@H](C)[C@H](CN(C)C(=O)c2cnccn2)Oc2ncc(-c3ccccc3F)cc2C1=O,10.5,4.2
Cc1cccc(S(=O)(=O)N2CCCCN3[C@H](C2)[C@H](c2ccc(C#CC(C)C)cc2)[C@@H]3CO)c1,-6.4,-22.0
CC(C)[C@H]1C=C(C(=O)NCc2ccccc2)O[C@@H](OCc2ccc(CO)cc2)C1,8.6,3.6
CCCNC(=O)C[C@@H]1CC[C@@H]2[C@H](COc3ccc(NC(=O)Nc4cccc(C)c4)cc3C(=O)N2C)O1,19.1,9.0
COc1ccc(S(=O)(=O)Nc2cccc3c2O[C@@H](CN(C)Cc2ccc4c(c2)OCO4)[C@H](C)CN([C@@H](C)CO)C3=O)cc1,7.3,18.3
O=C(Nc1ccccc1)N1CC(=O)N2[C@H](C1)[C@@H](c1ccc(C#CC3CCCCC3)cc1)[C@@H]2CO,?,.
C[C@H](CO)N1C[C@H](C)[C@@H](CN(C)Cc2ccc(Cl)c(Cl)c2)OCCCC[C@H](C)Oc2ccc(NC(=O)Nc3ccc(C(F)(F)F)cc3)cc2C1=O,-17.4,-3.4
COc1ccccc1S(=O)(=O)N1CC[C@@H]2[C@H]1c1cc(-c3ccc(F)cc3)ccc1N(C)[C@H]2CO,5.2,2.1
O=C(N[C@H]1CC[C@H](CCNC(=O)C2CCOCC2)O[C@H]1CO)c1ccncc1,-3.2,11.5
C[C@@H]1CN([C@@H](C)CO)C(=O)c2cc(NS(=O)(=O)c3ccc(F)cc3)ccc2O[C@@H](C)CCCCO[C@H]1CN(C)Cc1ccc2c(c1)OCO2,?,.
CCCN(C)C[C@@H]1Oc2ncc(-c3cccc(F)c3)cc2C(=O)N([C@H](C)CO)C[C@@H]1C,-6.6,-18.3
C[C@H](NC(=O)C[C@H]1CC[C@@H](NC(=O)CN2CCOCC2)[C@H](CO)O1)c1ccccc1,0.1,1.8
CN(C)c1ccc2c(c1)[C@@H]1C[C@@H](CC(=O)NCc3cc(F)ccc3F)O[C@H](CO)[C@@H]1O2,-21.6,-24.2
Cc1noc(C)c1S(=O)(=O)Nc1cccc2c1O[C@@H](CN(C)C(=O)Nc1ccccc1)[C@@H](C)CN([C@H](C)CO)C2=O,10.0,8.8
C[C@H]1CN([C@@H](C)CO)C(=O)c2cc(NC(=O)C3CCCCC3)ccc2O[C@@H]1CN(C)C,-6.2,-2.6
COc1ccccc1-c1ccc([C@@H]2[C@@H](C#N)N(C(=O)C3CCCC3)[C@@H]2CO)cc1,-22.0,-6.5
O=C(C[C@H]1CC[C@@H](NC(=O)c2cccc(F)c2)[C@H](CO)O1)NCc1ccccc1,10.5,4.3
N#C[C@@H]1[C@@H](c2ccc(-c3cccc(F)c3)cc2)[C@H](CO)N1C(=O)CN1CCOCC1,1.3,-2.4
CC1=C2C[C@H]3[C@@H](CC=C4C[C@@H](O)CC[C@@]43C)[C@@H]2CC[C@]12O[C@@H]1C[C@H](C)CN[C@@H]1C2C (some centres undefined),9.0,9.8
CC(=O)N(C)C[C@@H]1Oc2ncc(-c3cccnc3)cc2C(=O)N([C@H](C)CO)C[C@@H]1C,13.0,5.1
CC(C)NC(=O)N[C@H]1C=C[C@@H](CC(=O)O)O[C@@H]1CO,6.3,16.3
COc1ccc(NC(=O)Nc2ccc3c(c2)C(=O)N([C@H](C)CO)C[C@H](C)[C@@H](CN(C)C(=O)Nc2cccc4ccccc24)OCCCC[C@H](C)O3)cc1,24.3,17.3
CCCC#Cc1cnc2c(c1)C(=O)N([C@H](C)CO)C[C@@H](C)[C@@H](CN(C)C(=O)Cc1ccncc1)O2,-16.6,-8.9
CO[C@@H]1CN(C)C(=O)c2cc(NC(=O)C3CCCC3)ccc2OC[C@H](C)N(C(=O)CC2CC2)C[C@H]1C,-3.5,2.1
O=C(NCC1CCCCC1)[C@@H]1N[C@@H]2c3ccc(C4=CCCC4)c(=O)n3C[C@@H]2[C@H]1CO,-5.9,4.5
C[C@H](CO)N1C[C@H](C)[C@H](CN(C)S(=O)(=O)c2cn(C)cn2)OCCCC[C@H](C)Oc2ccc(NC(=O)CCC(F)(F)F)cc2C1=O,16.4,-2.4
C[C@H](CO)N1C[C@H](C)[C@@H](CN(C)Cc2ccc(C(=O)Nc3ccccc3N)cc2)Oc2ccc(NC(=O)CCC(F)(F)F)cc2CC1=O,13.8,15.4
CCCNC(=O)N1[C@@H]2c3cccc(=O)n3C[C@H]1[C@H](CO)[C@H]2C(=O)N1CCC(Cc2ccccc2)CC1,8.5,2.7
